# High-throughput results from PubChem BioAssay.
# Ecoli growth: blocks Escherichia coli growth | OD600, 23 h; stronger effect = lower value | OD600 absorbance (concentration not given with the values) | hit rate 0.21% among 330,000 | AID 1053175;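 active means OD600 absorbance below the run mean of sample wells minus 3.6 SD, in any replicate, cut at about 0.56 in these data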;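 further: stock transfer was 300 nL into about 60 µL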
# HNF4A DNA FP: change in binding of human HNF4 alpha to DNA. P41235. HNF4a-FITC DNA binding, fluorescence polarization, 1 h. activity change, % at 10 µM. hit rate 0.3% among 360,000; in the data active means activity change above about 30%, passing the limit was not always enough;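 further: controls were the assay level and a saturating level of protein; the project sought stronger binding though the title names inhibitors; some compounds called inactive have numbers as strong as hits; positive values seem to mean higher polarization but the record does not say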
# Target sequence (P41235 whole entry, looked up): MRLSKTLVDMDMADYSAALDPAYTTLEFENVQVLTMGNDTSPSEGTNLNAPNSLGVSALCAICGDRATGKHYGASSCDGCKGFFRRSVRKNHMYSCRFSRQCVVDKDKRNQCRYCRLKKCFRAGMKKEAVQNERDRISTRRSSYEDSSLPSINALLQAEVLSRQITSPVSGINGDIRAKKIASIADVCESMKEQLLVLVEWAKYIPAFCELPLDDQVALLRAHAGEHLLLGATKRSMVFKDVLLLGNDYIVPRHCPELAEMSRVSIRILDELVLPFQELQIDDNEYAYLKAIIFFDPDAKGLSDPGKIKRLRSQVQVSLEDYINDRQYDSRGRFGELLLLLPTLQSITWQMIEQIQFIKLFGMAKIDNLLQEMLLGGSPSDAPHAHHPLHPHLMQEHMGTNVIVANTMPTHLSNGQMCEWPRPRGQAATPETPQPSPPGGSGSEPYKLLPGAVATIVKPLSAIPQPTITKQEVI
# Vif A3G: HIV-1 Vif–A3G interaction blockers – biochemical, TR-FRET, GST-Vif 1-94, biotin-A3G peptide, dose response retest, primary screen (AID 1117319); TR-FRET GST-Vif / biotin-A3G peptide binding; higher % means a stronger effect; test concentration not given here; strong numbers were not always called active; one-dose inhibition, %; IC50 in µM for titrated hits; hit rate 0.57% among 260,000;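 active means above the screen mean plus three standard deviations and confirmed in dose response; inconclusive means results disagree or hit not tested in dose response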;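 further: Vif residues 1-94 fused to GST binding biotinylated APOBEC3G peptide 110-148; 0% = full assay without inhibitor and 100% = GST in place of GST-Vif; retest series ran down from 100 µM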
# UCH37 DUB inh: human UCH37 deubiquitinating enzyme inhibition. Q9Y5K5. purified proteasome/UCH37, Ub-AMC cleavage fluorescence. inhibition, % (test concentration not listed). hit rate 0.33% among 330,000. AID 588478;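 active means mean of two replicates above 20%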;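 further: 0% = compound-free wells with enzyme and 100% = wells lacking proteasome; stock transfer was 100 nL into about 20 µL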
# Target sequence (Q9Y5K5 whole entry, looked up): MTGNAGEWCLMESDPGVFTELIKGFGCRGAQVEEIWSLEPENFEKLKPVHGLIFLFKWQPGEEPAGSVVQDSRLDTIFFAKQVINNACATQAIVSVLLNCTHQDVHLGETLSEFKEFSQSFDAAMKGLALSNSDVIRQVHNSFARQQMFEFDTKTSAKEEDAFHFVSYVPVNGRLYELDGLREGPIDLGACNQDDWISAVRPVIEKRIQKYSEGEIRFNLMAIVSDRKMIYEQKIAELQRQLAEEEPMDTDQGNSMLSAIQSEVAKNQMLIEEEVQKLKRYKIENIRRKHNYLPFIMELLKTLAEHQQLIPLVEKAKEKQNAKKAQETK
#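 Test system – human UCH37 enzyme supplied as purified proteasome complex · Incubation – 30 min preincubation with enzyme, 25 min cleavage at room temperature · Detection – AMC fluorescence from Ub-AMC cleavage, excitation 355 nm, emission 460 nm · Benchmarks – no-proteasome wells (full inhibition) and compound-free wells (no inhibition)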
# Bfl-1 A1 inh: inhibitors of the anti-apoptotic protein A1, read as caspase activation; MEF A1-2A-BIM cells, Caspase-Glo 3/7 luminescence, 3 h; percent of clofoctol response, vehicle zero; caspase activation, % (test concentration not listed); hit rate 0.066% among 330,000;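 active means over half of replicate activation scores above 10%, or exactly half above 10 with the replicate mean above 10; inconclusive means replicate mean below 10 yet half the replicates above 10; inactive means over half of replicates below 10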;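 further: wells of about 30 µL received 50 nL stock; many hits fall short of the cut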
# Beta2AR agonist: human beta-2 adrenergic receptor agonism by FAP | AID 504454 | response, % (test concentration not listed) | P07550 | hit rate 0.43% among 340,000 | Am2.2-beta2AR cells, FAP receptor internalization, flow cytometry; reference of the scale not given here;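 active means response above a set limit, near 3 SD of response in nonfluorescent compounds, cut at about 42% in these data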;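 further: stock transfer was 100 nL into about 11 µL; a reference agonist was the positive control; negative values mostly stem from fluorescent compounds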
# LANA-H2A inh: blocks KSHV LANA binding to histone H2A/H2B; Q9QR71; cell-free LANA-H2A/H2B peptide, fluorescence polarization; inhibition, % (no concentration beside the values); hit rate 0.6% among 320,000; in the data active means inhibition mostly above about 10%, no sharp cut-off; inactive means mostly below about 6.7%;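 further: stock transfer was 7.5 nL into about 10 µL; 0% = median of vehicle wells and 100% = median of positive control wells; one replicate is shown; the record names a cut of 25% in any replicate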
# * marks the source's active call; other numbers are inactive results; ? = inconclusive; . = not tested or not shown.
SMILES,Ecoli growth,HNF4A DNA FP,Vif A3G,UCH37 DUB inh,Bfl-1 A1 inh,Beta2AR agonist,LANA-H2A inh
CCc1ccc(CN(C)C(C)C(=O)Nc2ccc(S(=O)(=O)N3CCCC3)cc2)cc1 (stereo not given),0.677,-5.3,-1.1%,3.5,.,0.5,.
Cc1c(Cl)c([N+](=O)[O-])nn1CCCC(=O)N(Cc1ccccc1)Cc1ccccc1,0.703,-3.6,-3.6%,2.8,0.0,4.0,-1.9
COc1cc(OC)cc(C(=O)NNC(=O)CN2C(=O)NC(C)(c3ccccc3)C2=O)c1 (stereo not given),0.594,-4.3,1.6%,1.7,0.2,-7.7,3.1
CC1(C)C2CCC1(CS(=O)(=O)Nc1ccccc1)C(=O)C2 (stereo not given),0.704,1.1,-2.3%,5.0,-1.7,0.0,-2.8
CC1CC(C)CN(C(=O)CCNC(=O)Cn2ccc3ccccc3c2=O)C1 (stereo not given),0.669,1.3,.,-1.7,-0.3,-2.6,0.0
COc1cccc(CNC(=O)C2CCN(S(=O)(=O)c3cccc4cccnc34)CC2)c1,0.703,-0.1,?,1.9,0.3,-10.3,-1.4
COc1ccc(Cc2n[nH]c(=S)n2C)cc1Br,0.686,1.6,0.7%,4.9,-0.5,1.6,2.6
O=C(NC(=S)N1CCN(c2ccc([N+](=O)[O-])cc2Cl)CC1)c1ccco1,0.69,4.5,?,5.3,1.6,-1.2,2.2
COc1ccc(C(=O)Nc2ccc(NC(C)=O)cc2)cc1S(=O)(=O)N(C)Cc1ccccc1,0.662,2.5,-0.9%,-1.3,-0.2,11.0,-1.1
N=c1sccn1CC(=O)NC(=O)NC1CCCC1,.,2.1,.,.,0.7,-2.4,-5.5
COc1ccc(NC(=O)CSc2nnc3n2CCCCC3)cc1,0.7,-0.2,-9.9%,3.2,0.0,11.3,-4.6
COc1ccc(NC(=O)c2ccccc2NS(C)(=O)=O)cc1OC,0.709,-3.5,4.4%,5.9,0.1,-7.6,-13.8
CC1CCCN(C(=O)c2ccc(NC(=O)CC3SC(N4CCCC4)=NC3=O)cc2)C1 (stereo not given),0.656,-0.8,5.8%,1.8,-0.2,-1.6,-1.5
Nc1ccc(C(=O)NCc2ccccc2)cc1,0.697,-0.8,10.6%,2.3,1.3,10.9,2.4
Cc1ccc(S(=O)(=O)c2nc(S(C)(=O)=O)sc2NCC2CCCO2)cc1 (stereo not given),0.725,-2.3,-1.5%,1.7,0.9,-8.5,-3.6
CCc1ccc(NC(=O)COc2ccc(Br)cn2)cc1,0.677,-2.5,-6.0%,0.4,0.1,-3.0,-2.5
Cc1ccccc1OCc1nnc(SCC(=O)NCc2ccco2)n1C,0.68,-4.2,-3.4%,-2.7,-0.6,-9.8,0.0
CSc1ccccc1NC(=O)c1cc(C)on1,0.651,-2.1,-4.5%,1.2,0.0,0.0,6.2
Cc1ccccc1C(=O)NC(C)c1ccc2c(c1)CCCC2 (stereo not given),0.676,0.3,-1.9%,-0.3,0.2,-0.1,5.0
O=C(CSc1ccc(-c2ccccn2)nn1)N1CCCc2ccccc21,0.656,-4.6,-4.7%,4.4,0.2,1.3,-2.5
O=C(COc1coc(CN2CCN(c3ccccc3)CC2)cc1=O)Nc1ccccc1,0.695,-1.1,.,4.8,0.2,-6.0,0.0
CC1C(=O)CC(c2ccccc2)N(C)C1c1ccccc1 (stereo not given),0.679,-0.8,3.0%,2.3,0.3,13.1,1.8
CC(C)(C)N(Cc1ccccc1)C(=O)c1ccc(Br)o1,0.714,-2.0,.,3.4,-0.4,7.7,9.6*
Cc1cc(C)n2ncc(C(=O)NC3CCCCC3)c2n1,0.684,0.7,-2.6%,-15.3,-0.3,-8.0,-14.1
Fc1ccc(N/N=C2/CC(c3ccccc3)Oc3ccccc32)c(F)c1 (stereo not given),.,-1.2,-3.5%,.,0.1,4.7,-0.6
Cc1ccc(C(C)C)c(OCC(=O)Nc2sc3c(c2C#N)CC(C)(C)NC3(C)C)c1,0.717,2.8,.,4.8,-0.1,18.7,-6.0
O=C(C[n+]1cc(-c2ccc(F)cc2)n2c1CCC2)Nc1nc(-c2ccc(F)cc2)cs1,0.683,0.0,-3.9%,-4.2,0.0,-16.6,-0.9
O=C(COC(=O)c1cccc(S(=O)(=O)N2CCCCCC2)c1)Nc1ccccc1C(F)(F)F,0.699,0.6,7.5%,2.1,-0.1,-2.8,3.7
Cc1c(OCC(=O)NCC(O)c2ccccc2)ccc2c3c(c(=O)oc12)CCCC3 (stereo not given),0.691,-0.5,.,-21.5,-0.8,-9.6,-4.5
CN(c1ccccc1)S(=O)(=O)c1ccc(Cl)c(C(=O)Nc2nn[nH]n2)c1,0.639,-1.2,.,1.2,0.7,4.1,3.8

# The listing continues.
SMILES,Ecoli growth,HNF4A DNA FP,Vif A3G,UCH37 DUB inh,Bfl-1 A1 inh,Beta2AR agonist,LANA-H2A inh
Cc1cc(NC(=O)CCC(=O)N(Cc2cccs2)C(C(=O)NC2CCCC2)c2cccnc2)no1 (stereo not given),0.688,-2.0,-1.7%,2.4,0.3,-5.5,-0.5
Cc1ccccc1NC(=O)c1ccc(CN(c2ccccc2)S(=O)(=O)c2ccccc2)cc1,0.661,-0.6,1.0%,0.1,0.0,18.1,-0.4
c1ccc(Cc2noc(CN3CCCC(CN4CCOCC4)C3)n2)cc1 (stereo not given),0.661,5.5,-9.7%,1.3,-0.8,7.0,-1.7
Cc1sc(NC(=O)c2ccco2)c(CN2CCCCC2)c1C,0.728,-0.6,-1.0%,3.7,-0.3,-2.1,-0.5
COc1ccccc1C(=O)NC(=O)COC(=O)CCOc1cc(C)ccc1C,0.691,-2.5,-0.1%,4.7,1.0,8.3,-0.4
COc1ccc(OC)c2c(C)cc(N3CCN(C(=O)c4ccc(Cl)cc4)CC3)nc12,0.647,-0.4,1.5%,-20.7,-0.2,27.3,-3.0
C=CCNC(=O)c1n[nH]c2c1CC(C(C)(C)CC)CC2 (stereo not given),0.653,-2.2,.,1.9,0.5,-24.1,-2.5
COC(=O)[C@H](C)NC(=O)NCc1ccccc1,0.712,3.2,-6.8%,5.3,0.3,-2.7,-1.1
CCOc1ccccc1-n1cnc2cc(C(=O)NCc3ccco3)ccc21,0.778,-5.3,8.1%,0.3,-0.5,11.0,-1.8
Nc1ncnc2c1ncn2[C@@H]1O[C@H](CNC(=O)[C@@H](N)C2CCCCC2)[C@@H](O)[C@H]1O,0.688,2.1,1.2%,3.9,.,-3.0,.
CN(C(=O)c1cccc(NC(=O)Cc2cccc(NC(=O)C3CCN(C(=O)C4CC4)CC3)c2)c1)C1CCC1,.,-4.8,-2.5%,.,.,-10.4,.
Cc1cc(N2CCOCC2)nc2ccc(NC(=S)NC(C)C)cc12,0.626,-1.6,-8.4%,-39.4,-0.1,9.3,0.6
S=C(c1ccccc1)N1CCSCC1,0.684,1.3,0.1%,1.8,0.7,-0.9,-4.5
C=CCNC(=O)c1ccc2c(c1)nnn2C,0.685,-0.5,0.8%,1.1,1.2,3.8,2.6
COc1ccc(N(CC(=O)NCc2ccccc2Cl)S(=O)(=O)c2c(C)n[nH]c2C)cc1,0.675,1.7,-1.8%,0.2,-0.1,0.8,-0.3
Cn1cc(SCC(N)=O)c2ccccc21,0.697,2.7,10.3%,2.0,0.0,1.1,3.7
O=C(/C=C/c1ccc(Cl)cc1)NC(=S)Nc1ccccc1C(=O)O,0.689,-2.5,.,3.3,0.6,2.3,7.5
S=C(NCCc1ccccn1)Nc1cc(Cl)cc(Cl)c1,0.64,1.5,-6.4%,1.8,0.4,5.2,2.4
CC1=C(C(=O)OC2CCCC2)C(c2coc3ccccc3c2=O)C2=C(CC(C)(C)CC2=O)N1 (stereo not given),0.69,0.2,-4.3%,1.3,0.1,12.3,-1.9
O=C(N/N=C/c1ccc(Cl)cc1Cl)c1ccc2nc[nH]c2c1,.,0.1,.,.,3.2,-5.5,-2.5
Cc1ccc(CNC(=O)/C(C#N)=C\c2ccc(N(C)C)cc2)cc1,.,.,14.2%,.,1.7,.,-2.7
CCn1ncc([N+](=O)[O-])c1C(=O)N1CCCC1,0.761,2.2,-0.9%,-0.4,0.8,-9.6,1.3
COC(=O)c1c(C)[nH]c(C(=O)OCC(=O)c2ccc(C)s2)c1C,0.679,-2.7,-2.2%,2.1,-0.2,1.6,1.7
Cc1cc(C)cc(NC(=O)c2ccc3nc[nH]c3c2)c1,0.647,-4.3,.,-0.2,-1.0,0.2,4.8
CC(C)(CO)NCC(=O)Nc1cc(C(F)(F)F)cc(NC(=O)CNC(C)(C)CO)c1Cl,0.684,-0.6,19.1%,1.3,1.0,-9.3,10.3
Cc1cccc(NC(=O)[C@@H](CC(C)C)NC(=O)[C@@H]2Cc3ccccc3CN2)c1,0.693,6.2,6.8%,0.0,0.5,1.3,1.8
CC(c1ccccc1)n1c(CO)nc2ccccc21 (stereo not given),0.667,-0.8,.,2.2,2.2,-0.3,-1.0
COc1ccc(OC)c(C(C(=O)NCc2ccco2)N(C(=O)Cn2nnc3ccccc32)C(C)C)c1 (stereo not given),0.749,-0.5,0.0%,3.1,1.4,1.1,-3.1
Nc1ncn(C(=O)c2ccco2)n1,0.692,0.8,12.1%,2.6,0.7,0.6,5.6
CC1CCCCN1C(=O)CSc1nc2ncccc2[nH]1 (stereo not given),0.719,1.4,.,2.5,0.7,-7.4,-1.0

# Carrying on:
SMILES,Ecoli growth,HNF4A DNA FP,Vif A3G,UCH37 DUB inh,Bfl-1 A1 inh,Beta2AR agonist,LANA-H2A inh
CCOC(=O)C1(CCCc2ccccc2)CCN(C(=O)CSC)CC1,0.685,-2.1,.,3.8,0.6,-1.1,-0.7
Cc1cc(C)c(NC(=O)C2CCC(=O)N2)c(C)c1 (stereo not given),0.69,-0.5,-1.9%,5.0,-0.5,0.8,1.4
CCn1c(=O)c2sccc2n(CC(=O)NC2CCCCC2)c1=O,0.653,0.9,.,5.7,-0.2,1.2,2.0
NS(=O)(=O)c1cccc(NC(=O)CCSc2ccc(Cl)cc2)c1,0.625,2.5,-2.5%,4.7,0.3,2.8,-3.6
OC1(c2ccc(Cl)cc2)CCN(Cc2c[nH]c3ccccc23)CC1,0.667,6.3,.,3.1,0.1,13.2,3.1
CC(C)(C)Nc1c2ccccc2nc2ccccc12,0.623,-5.3,-7.0%,-50.3,0.0,-7.1,-0.9
CCOC(=O)N1CCN(S(=O)(=O)c2ccc(-n3cnnn3)cc2)CC1,0.633,-1.6,.,0.4,0.4,-5.9,-0.5
O=C(O)CCCC(=O)Nc1ccc(Cl)cc1,0.672,2.6,.,-1.9,-0.7,23.9,-4.2
O=C(O)c1cc(-c2ccc(Br)s2)nc2ccccc12,0.697,-3.9,-377.0%,-162.4,-1.9,2.0,-3.3
CC(C)N(Cc1cnn(C)c1)C(=O)C1CCC(=O)N(CCc2cccc(F)c2)C1 (stereo not given),0.649,-0.8,2.0%,2.0,-0.3,-1.8,-9.3
O=C(NC1CCCC1)C1CCN(S(=O)(=O)c2cccc3cccnc23)CC1,0.702,2.0,-3.6%,0.5,0.4,8.7,-1.6
COc1ccc(C(=O)NC2CC(C)(C)Cc3c2cnn3-c2ccccc2C)o1 (stereo not given),0.715,-0.6,.,-0.1,-0.4,14.3,6.8
Cc1cc(N2C3CCC2CC(O)(c2ccc(F)cc2)C3)nc(-c2ccccc2)n1 (stereo not given),0.643,-1.4,4.4%,2.8,0.1,-11.0,1.6
CN(C)N=Nc1ccc(S(=O)(=O)/N=C(\O)c2ccccc2)cc1,.,3.1,.,.,0.0,4.4,-2.1
COc1ccc([C@H]2/C=C\CN(S(=O)(=O)c3cccc4cccnc34)[C@@H](C)C(=O)N2Cc2ccc(F)cc2)cc1,.,2.7,.,-1.4,-1.1,8.3,8.5
